Screening data (PubChem BioAssay)
HSD17B inh – HSD17B dehydrogenase inhibition | Potency, µM (titrated, usually from 57.1 µM), without a hit: top-dose activity change, negative = inhibition, hits mostly inhibitors | recombinant HSD17B10, NADH fluorescence kinetic; many of its hits are not listed in these tables | Q99714 | 75,000 tested, 7.6% active | AID 893; active means well fitted inhibition curve with a large enough effect; inconclusive means small, poorly fitted or top-dose-only effect; inactive means no such curve, though single readings can be large or run the other way;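 further: the protocol describes HADH2 (HSD17B10) and not the HSD17B4 of the title; nearly all actives have a fitted effect of over 70% in size; most hits overshoot -100% by far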
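20 nM HADH2, pH 9.0 Tris/Tween; cpd preinc 15 min RT; start w/ 1 mM NAD+ + 90 uM b-hydroxybutyryl-CoA; kinetic fluor ex360/em450 q30s x 4 min; delta last-first.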
An asterisk follows results filed as active; u = inconclusive; [ ] = another dose, or the depositor's remark. On the % scale 0 is the no-effect control and ±100 the full control effect; potency means the concentration at half of the fitted maximal effect.

SMILES | HSD17B inh
COc1ccc2[nH]cc(CCNc3ncncc3-c3ccccc3C)c2c1 | -9%
Cc1ccc2oc3c(c(=O)c2c1)C(c1cccc(Cl)c1)N(CCCN1CCOCC1)C3=O (centres undefined) | u
COc1ccccc1N(CC(=O)Nc1ccc(F)c(F)c1)S(C)(=O)=O | -3%
N#Cc1nc(Cc2cccc3ccccc23)oc1NCc1ccc2c(c1)OCO2 | 19%
Cc1ccc(OCC(=O)Nc2ccc3c(c2)nc(CCN2CCOCC2)n3C)cc1 | -7%
OC12CCCCC1C(c1ccc3c(c1)OCO3)N(Cc1cccc(F)c1)CC2 (centres undefined) | 6%
COCCN1Cc2cccc(C(=O)NCc3cccnc3)c2C1=O | 4%
CS(=O)(=O)N1CCC2(CCN(C(=O)Nc3cccc(C#N)c3)CC2)CC1 | 2%
c1cnc2ccc(C(c3nnnn3C3CCCC3)N3CCN(c4nc5ccccc5s4)CC3)cc2c1 (centres undefined) | 26%
NC(=O)c1c(C(F)(F)F)cc(-c2ccccc2)nc1NCCO | 6%
O=C(Nc1cccc(Cl)c1)c1ccc2c(=O)n3c(nc2c1)CCCCC3 | -13%
CCc1cccc(NC(=O)C2CCCN(S(=O)(=O)c3c(C)[nH]c(=O)[nH]c3=O)C2)c1 (centres undefined) | 13%
OCc1ccccc1O[C@@H]1O[C@H](CO)[C@@H](O)[C@H](O)[C@H]1O | 22%
COc1ccc(OCC(=O)N(C)Cc2ccccc2)cc1 | -2%
COC(=O)Oc1ccccc1C(=O)O | u
COc1ccc(-c2c3c(=O)n(C)c(=O)n(C)c3cn2NC(C)=O)cc1 | -11%
COc1ccc(C2C(C(=O)NCc3ccccc3)=C(C)Nc3ncnn32)cc1OC (centres undefined) | -14%
COC(=O)c1ccc(=O)n(-c2ccc(OC)cc2)c1 | 0%
CCN(CC)CCNC(=O)c1cc2c(=O)n(C)c3ccccc3c2n1C | 25µM*
CCCc1[nH]nc2c1C(c1ccc(OC(=O)c3ccco3)cc1)C(C#N)=C(N)O2 (centres undefined) | 4%
COc1cc2c(cc1OC)C(C(=O)N1CCCC1)C(c1ccccc1F)N(C)C2=O (centres undefined) | -6%
O=C(C1CCC(Cn2c(=S)[nH]c3ccccc3c2=O)CC1)N1CCN(c2ccccc2)CC1 (centres undefined) | 8%
COc1ccccc1N1CCN(S(=O)(=O)c2ccc3c4c(cccc24)C(=O)N3C)CC1 | -29%
COc1ccc(-n2nnc3c(=O)n(Cc4ccccc4C)cnc32)cc1 | 5%
CCc1ccc2oc(=O)cc(CN3CCC(C)CC3)c2c1 | -3%
CO[C@@H]1COC(=O)[C@H](C)NC(=O)[C@@H](C)COC(=O)[C@H](C)NC(=O)C/C=C\[C@H]1C | 1%[11.4 µM]
CCOC(=O)N1CCN(C(=O)c2cnn3ccccc23)CC1 | u
CN1CCN(Cc2nc3cccc4c3c([n+]2[O-])-c2ccccc2-4)CC1 | -4%[11.4 µM]
CCOC(=O)c1c(C2COc3ccccc3O2)csc1N (centres undefined) | -12%
COc1ccc(OC)c(N(CC(=O)Nc2ccc3c(c2)OCO3)S(=O)(=O)c2ccccc2)c1 | -8%

Individual results from the entries so far:
HSD17B inh result of `CO[C@@H]1COC(=O)[C@H](C)NC(=O)[C@@H](C)COC(=O)[C@H](C)NC(=O)C/C=C\[C@H]1C` stands at 1%[11.4 µM]
HSD17B inh result of `CCc1ccc2oc(=O)cc(CN3CCC(C)CC3)c2c1` stands at -3%
HSD17B inh result of `COc1ccccc1N1CCN(S(=O)(=O)c2ccc3c4c(cccc24)C(=O)N3C)CC1` stands at -29%

The listing continues.
SMILES | HSD17B inh
CC(=O)c1ccc(N2CCN(C(=O)c3ccco3)C(C)C2)c(F)c1 (centres undefined) | -17%
CC(C)(C)c1nc(CN2CCOCC2)ccc1O | -11%
COC(=O)Cc1nnc(NC(=O)c2ccccc2)s1 | -28%
CC[C@H](C)N(C)C(=O)c1cc2ccccc2c(-c2ccccc2Cl)n1 | 13%
CCCN1Cc2cccc(C(=O)Nc3ccc(OC)c(OC)c3)c2C1=O | 7%
O=C1C2C3C=CC(C3)C2C(=O)N1c1ccc(-c2nc3ccccc3o2)cc1 (centres undefined) | -143%
CCCCOCCCNC(=O)N[C@@H](CCSC)C(=O)OC | 5%
Cc1occc1C(=O)NC(C)C(C)(C)C (centres undefined) | 0%
CCSc1nnc(NC(=O)c2ccc(Br)s2)s1 | -4%
CCOc1ccccc1C1CC(c2ccc(Cl)cc2)Nc2nc(N)nn21 (centres undefined) | -11%
Cc1ccnc(NS(=O)(=O)c2ccc(NC(=O)C3CCCCC3C(=O)O)cc2)n1 (centres undefined) | 6%
C(=N\c1nc2ccccc2n1Cc1ccccc1)/c1cccs1 | -3%
O=C(c1ccc(CS(=O)(=O)c2c(Cl)cccc2Cl)o1)N1CCCC1 | -17%
O=C1C2C(c3ccccc3)C=CC(c3ccccc3)C2C(=O)N1CCO (centres undefined) | 0%
CC1CCN(S(=O)(=O)c2ccc(S(=O)(=O)N3CCN4CCCC4C3)cc2)CC1 (centres undefined) | -6%

Pulled by compound from above:
SMILES | HSD17B inh
CCc1ccc2oc(=O)cc(CN3CCC(C)CC3)c2c1 | -3%
CN1CCN(Cc2nc3cccc4c3c([n+]2[O-])-c2ccccc2-4)CC1 | -4%[11.4 µM]
Cc1occc1C(=O)NC(C)C(C)(C)C (centres undefined) | 0%
OCc1ccccc1O[C@@H]1O[C@H](CO)[C@@H](O)[C@H](O)[C@H]1O | 22%
CCCc1[nH]nc2c1C(c1ccc(OC(=O)c3ccco3)cc1)C(C#N)=C(N)O2 (centres undefined) | 4%

(further entries)
SMILES | HSD17B inh
Cc1ccc(-c2nc(CN(C)C)cc(CN(C)C)c2O)cc1 | 32µM*
CCOC(=O)C1=C(C)NC(=O)NC1c1cc2c(cc1Br)OCO2 (centres undefined) | 4%
FC(F)(F)c1cccc(OCCOCCn2cncn2)c1 | 6%
Cn1c(=O)cc(OCC(=O)N2CCC(N3CCCCC3)CC2)c2ccccc21 | 3%
COc1ccccc1-c1cc2nc(C)c(CCC(=O)NCc3ccco3)c(C)n2n1 | u
O=S1(=O)N=C(N2CCN(Cc3ccc4c(c3)OCO4)CC2)c2ccccc21 | 10%
Cc1ccc(NCc2nnc(SCC(=O)NCCc3ccccc3)n2C)cc1 | 2%
Cc1cc(NC(=O)CSc2nc3c(c(=O)n2-c2ccc(Cl)cc2)SCC3)no1 | 9%
COC(=O)NC(c1ccccc1)[C@@]1(C(=O)OC)CCCC1=O (some centres undefined) | 9%[11.4 µM]
O=C1CC(Cc2ccccc2)C(=O)N1CCc1ccc2c(c1)OCO2 (centres undefined) | 0%
C[C@H](CCC(=O)O)[C@H]1CC[C@H]2[C@@H]3CC[C@@H]4C[C@H](O)CC[C@]4(C)[C@H]3C[C@H](O)[C@]12C | -1%
O=C(Cn1nnc(-c2cccs2)n1)OC1CCCCC1 | 6%
O=C(O)CCCCn1ccc(=O)[nH]c1=O | 0%[11.4 µM]
COc1ccccc1CNc1nc(-c2cccnc2)nc2ccccc12 | -21%
O=C(CSc1nc2c(cnn2-c2ccccc2)c(=O)[nH]1)c1ccc(Cl)cc1 | -16%
Cc1cc(N2CCN(C(=O)c3ccco3)CC2)n2nc(C)nc2n1 | 7%
O=C(CN1C(=O)c2ccccc2S1(=O)=O)Nc1ccc(S(=O)(=O)N2CCCCC2)cc1 | 3%
Cc1ccc(-c2noc(CCC(=O)Nc3ccc4c(c3)OCO4)n2)cc1 | 4%
COc1cccc(C(=O)Nc2c(C(N)=O)oc3ccccc23)c1 | -2%
Cn1c(CNC(=O)Nc2cccc(Cl)c2)nnc1SCc1ccccc1 | -4%
CCC(=O)Nc1cccc(NC(=O)c2cccnc2)c1 | -1%
CCc1nnc(NC(=O)CN2CCN(C3CCCCC3)CC2)s1 | 8%
COc1ncc2nc(-c3ccccc3)c(=O)n(C)c2n1 | 13µM*
Cc1cccc(-n2ncc3c(N4CCCC4)ncnc32)c1 | 4%
Cn1c(=O)n(CCN2CCOCC2)c(=O)c2c1nc1n2CCN1c1ccccc1 | 2%
Cc1sc2nc(SCC(=O)N3CCCCC3)[nH]c(=O)c2c1C | -21%
O=C(NC1CCCC1)c1ccc(S(=O)(=O)N2CCCC2)cc1 | 8%
O=C(CSC1CCCCC1)N1CCN(c2ccccc2)CC1 | -13%
COc1cc(C(c2nnnn2C(C)(C)C)N2CCN(C)CC2)cc(OC)c1OC (centres undefined) | 11%
CCOc1ccc(-c2noc(-c3ccncc3)n2)cc1OCC | u

Three entries from above, field by field:
> CCc1nnc(NC(=O)CN2CCN(C3CCCCC3)CC2)s1
  HSD17B inh: 8%

> CC(C)(C)c1nc(CN2CCOCC2)ccc1O
  HSD17B inh: -11%

> COc1cccc(C(=O)Nc2c(C(N)=O)oc3ccccc23)c1
  HSD17B inh: -2%

Continued:
SMILES | HSD17B inh
Nn1c(SCC(=O)NCCC2=CCCCC2)nnc1C1CCCCC1 | 5%
O=C(c1cc(-c2ccc3c(c2)OCO3)on1)N1CCN(c2ccccc2)CC1 | u
CCC1CCCCN1C(=O)c1nn2cccnc2c1Cl (centres undefined) | 4%
Cc1cc(NS(=O)(=O)c2ccc(NC(=O)Nc3ccccc3)cc2)no1 | 4%
COc1ccc(-c2cc(C(F)(F)F)n3nc(C(=O)N4CCCC4)cc3n2)cc1 | 7.9µM*
O=C(O)c1ccc(CSc2n[nH]c(-c3ccco3)n2)cc1 | -18%
Clc1ccc(CSc2nnc(-c3ccncc3)o2)c(Cl)c1 | -8%
O=C(Cn1nc(-c2ccccc2)ccc1=O)N1CCOCC1 | -20%
COc1ccccc1C1=Nn2c(nnc2C2CCCCC2)SC1 | u
CCOC(=O)CN(C(=O)Cn1nnc2ccccc21)C(C(=O)NCCOC)c1ccccc1 (centres undefined) | 17%
CC(C)CCNC(=O)Cc1c(C(=O)O)[nH]c2ccc(Cl)cc12 | -10%
CC(C)=N[C@H](C(=O)O)C(C)(C)S | 0%[11.4 µM]
COCCn1nnnc1C(C(C)C)N1CCC(Cc2ccccc2)CC1 (centres undefined) | 0%
Cc1cccc(N2CC(C(=O)Nc3ccc4c(c3)OCO4)CC2=O)c1C (centres undefined) | 0%
Cc1nn(-c2ccccc2)c2sc(C(=O)OCc3nnc(-c4ccccc4)o3)cc12 | -29%

The final 4 records of the section above are carried over, then new ones follow.
SMILES | HSD17B inh
CC(C)=N[C@H](C(=O)O)C(C)(C)S | 0%[11.4 µM]
COCCn1nnnc1C(C(C)C)N1CCC(Cc2ccccc2)CC1 (centres undefined) | 0%
Cc1cccc(N2CC(C(=O)Nc3ccc4c(c3)OCO4)CC2=O)c1C (centres undefined) | 0%
Cc1nn(-c2ccccc2)c2sc(C(=O)OCc3nnc(-c4ccccc4)o3)cc12 | -29%
CCS(=O)(=O)NCc1cn2ccsc2n1 | 12%
COc1cc(C2=NOC(C(=O)Nc3ccc(C)cc3)C2)cc(OC)c1OC (centres undefined) | -15%
CCN(CC)Cc1ccc(Nc2ccnc3cc(Cl)ccc23)cc1O | 0%
CCOC(=O)N1CCC(NC(=O)c2ccc3c(c2)ncn3C2CCCC2)CC1 | -4%
O=C(NC1CCCC1)C(c1ccc(Cl)cc1)N1CCOCC1 (centres undefined) | 7%
CC(C)(CC(=O)Nc1ccccc1)C(=O)O | 5%[11.4 µM]
O=C(CCN1CCN(CCO)CC1)Nc1ccc(F)c(F)c1 | 7%
C/C(N)=C(/C#N)C(=O)COC(=O)CC1CCCC1 | 5%
O=C(O)COc1ccc(Oc2ccccc2)cc1 | -3%
COC(=O)c1ccc(S(=O)(=O)N(Cc2cc3cc4c(cc3[nH]c2=O)OCO4)C2CCCCC2)cc1 | u
CC1(CC(=O)O)O[C@H]2CCCCC[C@H]2O1 (some centres undefined) (tested in a mixture with another compound) | 2%[11.4 µM]
COCCCN1CC23C=CC(O2)C(C(=O)OC)C3C1=O (centres undefined) | 2%
CCCn1cnc2cc(NCc3cccc(OC)c3)ccc21 | u
COc1cccc(-n2nnc3c(=O)n(Cc4ccc(F)cc4)cnc32)c1 | -15%
COCC(C)n1c(C)cc(C(=O)COc2ccc(S(=O)(=O)N3CCOCC3)cc2Cl)c1C (centres undefined) | -2%
Cn1c(SCc2nc3ccccc3c(=O)[nH]2)nnc1-c1ccco1 | -12%
CCCOc1ccc(N2C(=O)CC(N(O)c3ccccc3)C2=O)cc1 (centres undefined) | -4%
CCCCCn1c(SCC#N)nc2cc(C(=O)NC3CCCCC3)ccc2c1=O | -4%
CCOC(=O)CNC(=O)c1ccc2c(c1)OCCO2 | 4%
CCCOC(=O)CCn1c(=S)oc2ccccc21 | -1%
COC(=O)C1(CCSC)NC(c2ccccc2OC)C2C(=O)N(C)C(=O)C21 (centres undefined) | 6%
CCC(C)(C)n1nnnc1C(c1ccc(OC)c(OC)c1)N1CCN(c2ccc(F)cc2)CC1 (centres undefined) | 5%
COc1ccc(OC)c(-c2c[n+](=O)c3c(n2[O-])CCCC3)c1 | 4%
CC(CC(=O)O)(CC(=O)O)C(=O)O | 2%[11.4 µM]
CC(/C=C/c1ccc(Cl)o1)=C\C(=O)O | -23%
CC(C)CO/N=C1/C[C@@H](O)[C@@H](O)[C@@H]2[C@@H]3C(=O)N(C[C@@H]4CCCO4)C(=O)[C@H]3CC[C@@H]12 | 9%[11.4 µM]
CCc1ccc(CCC(=O)Nc2ccc(C)cc2C)o1 | 20%
COc1ccccc1-n1c(=S)sc2c(=O)n(Cc3ccco3)c(SC)nc21 | -18%
CCCn1c(SCC(=O)Nc2cc(C)on2)nc2c1c(=O)n(C)c(=O)n2C | -3%

Only part of the results is shown; the hit share may differ from the screen's.
